ALR inh: inhibitors of human ALR sulfhydryl oxidase, primary screen, biochemical, H2O2 detection, HRP-luminol luminescence, single point; FAD-linked sulfhydryl oxidase ALR (Homo sapiens), P55789; purified ALR, DTT oxidation; inhibition, % (test concentration not listed); hit rate 3.8% among 290,000;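 active means mean and each replicate at 75% or more; inconclusive means only one of the two met; inactive means neither met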;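 further: stock transfer was 7.5 nL into about 7.5 µL; 0% = neutral wells and 100% = wells with inactivated enzyme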
Target sequence (P55789 whole entry, looked up): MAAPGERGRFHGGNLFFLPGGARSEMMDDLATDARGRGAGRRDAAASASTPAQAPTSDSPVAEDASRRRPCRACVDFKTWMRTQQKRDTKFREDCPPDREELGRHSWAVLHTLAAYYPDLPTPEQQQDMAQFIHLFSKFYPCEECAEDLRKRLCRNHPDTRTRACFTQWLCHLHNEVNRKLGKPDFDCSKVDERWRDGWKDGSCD
Calb FLC: C. albicans growth inhibition with fluconazole, primary screen, CaCi-2 strain, Alamar Blue fluorescence | hit rate 0.57% among 300,000 | C. albicans CaCi-2 (fluconazole-resistant clinical isolate) + fluconazole, 48 h | growth inhibition, % (test concentration not listed) | AID 1979, 2009;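 active means most replicates above 75%; inconclusive means exactly half above 75%; inactive means most below 75%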;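 further: all wells also contain fluconazole at 8 µg/ml as a sub-toxic cotreatment; 0% = median of DMSO wells and 100% = median of geldanamycin control wells; wells of about 8 µL received 7.5 nL stock; the first replicate is given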
Vif A3G: inhibitors of Vif binding to APOBEC3G peptide, primary screen, biochemical, TR-FRET, GST-Vif 1-94, biotin-A3G peptide, dose response retest (AID 1117319). Virion infectivity factor (Human immunodeficiency virus type 1 group M subtype B (isolate …. TR-FRET GST-Vif / biotin-A3G peptide binding; higher % means a stronger effect; test concentration not given here; strong numbers were not always called active. inhibition, %; hits with a dose series show IC50 in µM. hit rate 0.57% among 260,000;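 active means above the screen mean plus three standard deviations and confirmed in dose response; inconclusive means results disagree or hit not tested in dose response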;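 further: Vif residues 1-94 fused to GST binding biotinylated APOBEC3G peptide 110-148; 0% = full assay without inhibitor and 100% = GST in place of GST-Vif; retest series ran down from 100 µM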
B2AR ag: beta2AR agonists driving receptor internalization, primary screen, cell-based, FAP fluorogen, flow cytometry; Am2.2-beta2AR cells; reference of the scale not given here; hit rate 0.43% among 340,000; response, % (test concentration not listed); Beta-2 adrenergic receptor (Homo sapiens), P07550;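 active means response above a set limit, near 3 SD of response in nonfluorescent compounds, cut at about 42% in these data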;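 further: stock transfer was 100 nL into about 11 µL; a reference agonist was the positive control; negative values mostly stem from fluorescent compounds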
Target sequence (P07550 whole entry, looked up): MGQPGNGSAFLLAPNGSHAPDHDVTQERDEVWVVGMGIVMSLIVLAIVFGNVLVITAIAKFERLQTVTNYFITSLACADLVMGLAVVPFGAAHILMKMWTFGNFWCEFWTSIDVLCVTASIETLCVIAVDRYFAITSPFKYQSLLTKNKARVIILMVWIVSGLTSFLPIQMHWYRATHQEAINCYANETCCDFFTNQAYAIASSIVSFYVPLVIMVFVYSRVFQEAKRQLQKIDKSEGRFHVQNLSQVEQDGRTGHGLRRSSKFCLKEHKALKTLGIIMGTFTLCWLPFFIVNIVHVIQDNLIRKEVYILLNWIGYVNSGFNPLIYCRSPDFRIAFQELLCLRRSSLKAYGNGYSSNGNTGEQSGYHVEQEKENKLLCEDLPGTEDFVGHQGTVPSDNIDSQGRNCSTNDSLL
LANA-H2A inh: blockers of LANA interaction with H2A/H2B – biochemical, FP readout, HTS, primary screen | Protein LANA1 (Human herpesvirus 8 type P (isolate GK18)), Q9QR71 | cell-free LANA-H2A/H2B peptide, fluorescence polarization | inhibition, % (test concentration not listed) | hit rate 0.6% among 320,000 | AID 2629, 2010; in the data active means inhibition mostly above about 10%, no sharp cut-off; inactive means mostly below about 6.7%;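 further: stock transfer was 7.5 nL into about 10 µL; 0% = median of vehicle wells and 100% = median of positive control wells; one replicate is shown; the record names a cut of 25% in any replicate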
RanGTP-Impb inh: inhibitors of RanGTP-importin-beta interaction, primary screen, biochemical, FRET, CFP-Ran, YFP-importin-beta, homogeneous; AID 2216, 2009; hit rate 1.1% among 300,000; cell-free CFP-Ran/YFP-importin-beta FRET ratio; inhibition, % (no concentration beside the values); Ran GTPase (GTP-bound) - importin-beta complex;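 active means most replicates above 15%; inconclusive means exactly half above 15%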;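 further: 0% = DMSO wells and 100% = Ran loaded with GDP instead of GTP; wells of about 40 µL received 100 nL stock; the first replicate is given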
HNF4A DNA FP: change in binding of human HNF4A to DNA, primary screen, biochemical, fluorescence polarization, FITC-DNA. Hepatocyte nuclear factor 4-alpha (Homo sapiens), P41235. 1 h. activity change, % at 10 µM. hit rate 0.3% among 360,000. AID 1224865, 2016; in the data active means activity change above about 30%, passing the limit was not always enough;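 further: controls were the assay level and a saturating level of protein; the project sought stronger binding though the title names inhibitors; some compounds called inactive have numbers as strong as hits; positive values seem to mean higher polarization but the record does not say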
Target sequence (P41235 whole entry, looked up): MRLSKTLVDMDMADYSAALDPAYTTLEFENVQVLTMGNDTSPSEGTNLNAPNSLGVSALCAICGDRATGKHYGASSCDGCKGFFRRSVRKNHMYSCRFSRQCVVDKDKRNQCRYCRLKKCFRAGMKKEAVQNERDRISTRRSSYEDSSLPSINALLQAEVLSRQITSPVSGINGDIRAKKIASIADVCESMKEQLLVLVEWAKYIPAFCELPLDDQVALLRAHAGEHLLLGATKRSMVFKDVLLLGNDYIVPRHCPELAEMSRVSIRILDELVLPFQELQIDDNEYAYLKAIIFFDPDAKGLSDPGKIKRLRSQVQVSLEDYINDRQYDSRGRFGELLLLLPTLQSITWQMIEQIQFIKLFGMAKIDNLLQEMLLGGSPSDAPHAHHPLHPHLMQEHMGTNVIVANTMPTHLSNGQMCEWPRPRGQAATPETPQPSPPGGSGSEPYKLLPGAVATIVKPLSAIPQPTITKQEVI
Active calls of the source: *; i = inactive; u = inconclusive; x = no result given. The order is random. About 6.3% of those tested had a hit in this group.

#	molecule	ALR inh	Calb FLC	Vif A3G	B2AR ag	LANA-H2A inh	RanGTP-Impb inh	HNF4A DNA FP
1	Cc1ccc(NC(=O)C2CCCN2C(=O)NC2CCCCC2)cc1F (stereo not given)	0	-20	x	-6	6.5	0.9	-2.7
2	COc1ccc2[nH]c(=O)c(CN(C3CCCCC3)C(c3nnnn3Cc3ccco3)C(C)C)cc2c1 (stereo not given)	x	-2	u	-1	7.1	-5.1	54*
3	O=C(CCS(=O)(=O)c1cccc2nsnc12)N1CC(=O)N(CCc2ccccc2)C(=O)C1	-8	-3	-2%	7	-0.5	6.6	2.1
4	Cc1ccc(C)c(N2CCN(C(=S)NC3CCCCC3)CC2)c1	7	-11	0%	-5	1.5	2.4	0.8
5	CC(=O)NS(=O)(=O)c1ccc(N=c2ssc3c2-c2cc(C)c(C)cc2NC3(C)C)cc1	99*	-1	x	18	-0.2	-15	3.2
6	Cc1cc(C(F)(F)F)nc(SCC(=O)Nc2nccs2)n1	0	-3	x	-11	-2.8	4.6	-1.2
7	COc1cc(OC)cc(-c2nnc(SCC(=O)N3CCCC3)o2)c1	4	-11	0%	-9	-5.9	6.7	-1.9
8	Cn1c(N)c(C(=O)COC(=O)COc2ccc(Br)cc2)c(=O)n(C)c1=O	-1	x	-7%	-4	i	x	1.0
9	CC(C)c1c(C(=O)N/N=C/c2cccnc2)nnn1-c1nonc1N	-4	-7	8%	1	-1.7	-0.7	-0.2
10	Cc1nnc2sc(-c3ccc(N(C)C)cc3)nn2c1=O	x	0	-4%	-12	x	3.2	0.6
11	Cn1c(SCc2ccccc2)nccc1=O	x	x	1%	-11	x	x	4.0
12	COc1ccc([N+](=O)[O-])cc1NC(=O)Cc1noc2ccc(C)cc12	-8	-17	-12%	-11	-0.6	-4.6	-0.9
13	O=C(CSc1nc(O)c(Cc2ccccc2)c(=O)[nH]1)Nc1nc2c(s1)CCCC2	99*	0	3%	-1	2.5	5.7	-1.2
14	CCO[C@H]1OC(C(=O)Nc2ccccc2)=C[C@@H](c2csc3ccccc23)[C@@H]1CCCO	-12	27	2%	-3	-2.9	8.5	0.9
15	O=S(=O)(Nc1cc(S(=O)(=O)N2CCOCC2)ccc1Cl)c1ccccc1	-3	x	x	4	4.3	x	3.6
16	CC(C)n1cnnc1SCC(=O)Nc1ccc(N2CCCCC2)cc1	99*	-3	1%	-1	1.8	-1.0	1.3
17	Cc1ccc(C)c(NC(=S)N/N=C2/CCCCc3ccccc32)c1	x	-3	2%	-1	1.1	u	-0.9
18	CC1CCN(c2ccc(NC(=S)NC(=O)c3ccc(-c4cccc([N+](=O)[O-])c4)o3)cc2)CC1	-4	-36	20%	13	-2.8	-2.6	-2.5
19	CC(C)C(=O)Nc1cccc(-c2cn3ccccc3n2)c1	1	-6	x	-4	-3.6	3.8	-1.6
20	CCN1CCN(c2ccc(S(=O)(=O)N3CCCCC3)cc2NC(=O)Cc2ccccc2)CC1	-10	x	-5%	8	-1.9	2.9	3.0
21	O=C(CSc1nnc(-c2cccnc2)n1Cc1ccco1)Nc1cccc(O)c1	4	-20	3%	6	-1.5	-3.8	2.7
22	Cc1cccc(NC(=O)C(=O)NCCCc2ccccc2)c1	-7	-26	-6%	x	-1.2	5.6	x
23	CC(=O)NC(c1ccc(F)cc1)c1cccnc1 (stereo not given)	-2	u	14%	-3	-1.2	0.7	-2.6
24	CCC(C)(C(=O)NC1CCCCC1)N(Cc1ccco1)C(=O)CC1NC(=O)NC1=O (stereo not given)	29	4	25%	15	0.5	-3.0	-2.2
25	Cc1cccc(NC(=O)Nc2ccc(S(=O)(=O)Nc3onc(C)c3C)cc2)c1	50	x	3%	9	-0.9	x	-3.7
26	COc1cc(/C=C/CN2CCN(Cc3ccc(C)o3)C(CCO)C2)ccc1O (stereo not given)	98*	29	-9%	1	1.2	0.3	2.5
27	O=[N+]([O-])c1c(Nc2ccc(O)cc2)cc(Cl)c2nonc12	47	87*	x	81*	-4.5	-7.2	2.4
28	O=C(NCCN1CCOCC1)/C(=C\c1ccc(Br)cc1)NC(=O)c1cccs1	0	1	x	-8	-1.5	8.6	2.5
29	CCSc1oc(-c2ccco2)nc1S(=O)(=O)c1ccc(C)cc1	-1	-3	x	-14	2.7	-1.0	-1.9
30	O=C(NCc1ccccc1)Nc1cc(Cl)ccc1Cl	-10	3	4%	1	-5.5	-1.5	0.5
31	COc1ccc(Cc2noc(CN3CCCC(C(=O)c4cccs4)C3)n2)cc1OC (stereo not given)	-4	u	3%	-1	-3.7	3.4	1.9
32	COc1ccc(-n2nc(C(=O)NCC(=O)Nc3ccccn3)c3ccccc3c2=O)cc1Cl	x	5	-13%	20	x	11	-0.4
33	COc1ccc2nc(C3CCCCC3)c3c(c2c1)CCC3	2	2	x	0	3.4	-2.2	3.3
34	CCn1nc(C)c(/C=C2\CCCC3=C2OC(N)=C(C#N)C3c2c(C)nn(CC)c2C)c1C (stereo not given)	-15	0	5%	x	-1.8	2.3	x
35	CC(C)CC(=O)N1CCC(O)(CS(=O)(=O)Cc2ccccc2Cl)CC1	-4	-6	0%	2	1.2	-2.0	4.2
36	Cc1ccc(NCC(=O)N/N=C\c2ccc[nH]2)cc1	x	-2	30%	-1	-0.2	-0.5	-0.1
37	O=C(CSc1n[nH]c(=O)n1C1CC1)Nc1ccc(Cl)cc1Cl	7	x	x	-1	-0.7	x	3.0
38	CCCCCC1CC(=O)NC1(C(=O)OCC)C(=O)OCC (stereo not given)	x	x	-4%	5	x	x	1.6
39	C/C(=N\Nc1ccc(S(=O)(=O)Nc2ccccc2)cc1[N+](=O)[O-])c1ccncc1	-20	-1	0%	x	-7.2	4.7	x
40	O=C(Nc1cc2c(cc1Br)OCCO2)c1cccnc1	3	-3	5%	-5	-13	-2.2	-1.6
41	Cc1ccc(C(CC(=O)N2CCCC2)c2ccccc2)c(O)c1C (stereo not given)	11	-2	-2%	-8	-1.7	-0.5	-0.6
42	CN(C)S(=O)(=O)Nc1ccccc1C(N)=O	x	-7	-3%	0	0.7	-0.9	3.1
43	CC(C)c1nc(SCC(=O)N2CCCCCC2)c2c(=O)n(C)c(=O)n(C)c2n1	-12	-3	0%	-3	53*	5.7	5.3
44	O=C(COC(=O)COc1ccc(Cl)cc1)Nc1ccc(N2CCOCC2)cc1	12	-14	4%	4	-1.0	-1.9	1.1
45	CCN(CC)S(=O)(=O)c1ccc(/C=C/C(=O)Nc2c(C)n(C)n(-c3ccccc3)c2=O)cc1	6	9	2%	9	2.4	5.1	1.1
46	CCOc1ccc(NS(=O)(=O)c2ccc3c(c2)CCN3C(C)=O)cc1	3	11	8%	-29	-0.8	0.4	1.4
47	COc1ccc2cc(CN(CC3CCCO3)C(=S)NCc3ccco3)c(=O)[nH]c2c1 (stereo not given)	-7	-3	-10%	17	-1.8	1.8	-2.2
48	CCc1ccccc1NC(=O)COc1cccc(-n2cnnn2)c1	-2	-1	x	1	-3.7	0.3	0.5
49	CCOC(=O)C1CCN(C(=O)/C=C/c2ccc3c(c2)OCO3)CC1	x	7	x	4	-1.3	-4.0	1.8
50	O=C1NN(c2ccccc2)C(=O)/C1=C\c1ccccc1	90*	8	x	13	2.7	-9.2	2.6
51	CC1CC(C)CN(C(=O)COc2cccnc2[N+](=O)[O-])C1 (stereo not given)	-2	x	-5%	0	3.3	x	-0.8
52	Cc1cccn2c(/C=N/OCc3ccc(F)cc3)c(-c3ccc(Cl)cc3)nc12	-14	-5	-4%	2	-0.3	3.7	-0.2
53	CCCC(=O)Nc1cc(C(=O)O)ccc1S(=O)(=O)c1ccc(C)cc1	-5	11	-1%	-4	-1.1	-1.6	1.7
54	NS(=O)(=O)c1cccc(NC(=O)CN2CCc3ccccc32)c1	-9	6	x	-7	3.9	-3.3	1.0
55	COc1ccc(C(=O)N/N=C/c2ccc(N3CCOCC3)o2)cc1OC	x	14	x	-5	-5.4	1.6	-5.9
56	CC(C)CC(=O)C1=C(O)C(=O)N(Cc2ccccc2)C1c1ccccc1 (stereo not given)	0	1	x	-2	7.0	1.3	3.6
57	COc1ccc(-c2c(C#N)c(SCc3c(C)noc3C)nc3c2C(=O)CC(C)(C)C3)cc1	-1	-6	-2%	-18	0.0	-4.6	4.0
58	Cc1cc(C(=O)CCC(=O)N2CCN(S(=O)(=O)c3cccs3)CC2)c(C)s1	-2	-2	-1%	5	-1.5	0.5	1.1
59	Cc1cc(C)cc(NC(=O)CCN2CCOCC2)c1	x	8	x	-4	-2.0	-3.6	1.6
60	O=C1C=CC(=Nc2ccc3c(c2)C(=O)c2ccccc2-3)O1	x	x	-3%	0	x	x	2.7

Remaining list, next part:
#	molecule	ALR inh	Calb FLC	Vif A3G	B2AR ag	LANA-H2A inh	RanGTP-Impb inh	HNF4A DNA FP
61	Cc1ccc(CN2CCN(Cc3cn(C)nc3C)CC2CCO)o1 (stereo not given)	-5	-13	-6%	-2	3.3	-3.8	-0.2
62	COc1ccccc1S(=O)(=O)Nc1ccc2cn[nH]c2c1	-4	4	5%	13	0.2	1.2	1.7
63	COc1ccc(Nc2nc(-c3cccs3)cs2)c(OC)c1	47	19	5%	10	1.8	-1.3	9.9
64	O=C(Cc1ccccc1)Nc1ccccc1Oc1ccccc1	-34	-41	18%	-5	1.4	0.6	-0.2
65	O=S(=O)(c1cccc2nsnc12)N1CCCCC1	-6	-2	5%	5	-1.4	-2.2	-5.6
66	O=C(Oc1ccccc1-c1nnco1)c1ccc(Cl)cc1	45	-8	5%	2	-3.4	2.2	0.9
67	COC(=O)C1=C(C)N(c2ccc(OC)cc2)C(C)=C(C(=O)OC)C1c1ccccc1	-5	-16	12%	0	0.3	2.3	-3.2
68	c1coc(-c2ccnc(-c3ccncc3)n2)c1	9	25	-9%	-5	-2.5	5.6	6.6
69	C=CCSc1nnc2c(n1)OC(c1ccco1)Nc1ccccc1-2 (stereo not given)	98*	10	12%	-3	-0.9	-3.8	8.3
70	CC(C)CC(=O)N=C1SC2CS(=O)(=O)CC2N1Cc1ccccc1Cl (stereo not given)	-2	-5	32%	-1	3.9	-1.0	0.9
71	Cc1cc(=O)oc2cc(OCC(=O)Nc3ccccc3C(=O)O)ccc12	6	3	4%	5	-0.9	-0.2	0.8
72	CCOc1cc(NC(=S)NCC(C)C)c(OCC)cc1NC(=O)c1cccs1	-20	-2	19%	9	-0.6	-2.3	0.1
73	COc1cccc(C(=O)N2CCN(C(=O)c3cccc4ccccc34)CC2)c1OC	-2	0	2%	1	1.6	4.2	-2.4
74	COCCN(CCOC)c1nc(S(=O)(=O)c2ccc(C)cc2)c(Cl)s1	-1	-7	-4%	-6	0.3	0.7	3.4
75	O=C(Cn1cccc1C(=O)c1ccccc1)NCc1ccccc1Cl	4	6	x	-5	-0.2	-3.0	-6.4
76	Cc1ccc(S(=O)(=O)Nc2ccc(C(N)=O)cc2)cc1[N+](=O)[O-]	-7	0	7%	-6	2.7	5.4	-0.9
77	N#Cc1cc2c(=O)n3ccccc3nc2n(Cc2cccnc2)c1=O	-8	33	x	7	-26	74*	-3.7
78	O=C(Nc1ccc(F)cc1F)C1CCCN1S(=O)(=O)c1cccc2nsnc12 (stereo not given)	4	-17	x	6	x	1.0	-1.7
